GIV-Gai inh – GIV-Galpha-i interaction inhibition | 210,000 compounds, 0.42% hits | AID 1224905 | P08753 | Galpha-i3/FITC-GIV peptide fluorescence polarization, 90 min; hits give low values; scaled: aluminum fluoride 0%, vehicle 100% | percent of control (FP), % (no concentration beside the values);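 active means replicate mean at 85% of control or lower, very high polarization wells dropped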;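 further: wells of about 15 µL received 100 nL stock; the first replicate is given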
Target sequence (P08753 whole entry, looked up): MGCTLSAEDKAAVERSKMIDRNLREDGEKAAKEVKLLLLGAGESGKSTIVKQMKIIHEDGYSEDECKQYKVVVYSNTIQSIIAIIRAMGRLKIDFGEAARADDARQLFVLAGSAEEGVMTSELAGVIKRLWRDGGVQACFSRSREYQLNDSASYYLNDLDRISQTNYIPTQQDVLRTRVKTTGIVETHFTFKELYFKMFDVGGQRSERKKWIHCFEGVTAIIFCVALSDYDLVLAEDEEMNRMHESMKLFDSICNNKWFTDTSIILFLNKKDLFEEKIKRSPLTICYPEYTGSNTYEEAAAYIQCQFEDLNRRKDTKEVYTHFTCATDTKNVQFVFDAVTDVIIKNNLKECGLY
* marks the source's active call; other numbers are inactive results. This is a subset; rates above refer to the full screens.

GIV-Gai inh | Molecule
123 | Cc1c(Cl)cccc1NC(=O)CSC1=C(C#N)C(c2ccccc2[N+](=O)[O-])CC(=O)N1 (configuration not stated)
183 | CCN1/C(=C\C=c2/s/c(=C3\SC(=S)N(C)C3=O)n(C)c2=O)Sc2ccccc21
109 | Cc1cccc(NC2=NC(=S)N(c3ccccc3C)C23CCCCC3)c1
109 | CC12CCC(C(=O)N(c3ccccc3Br)C1=O)C2(C)C (configuration not stated)
99 | CCC(C)(C)C(=O)N1CCCN(C2=NS(=O)(=O)C(c3ccc(C)cc3)=C2C)CC1
112 | CCOc1cccc2cc(C(=O)Nc3ccc(OC)cc3)c(=Nc3ccc(C(=O)O)cc3)oc12
95 | Cc1cc(C)c2c(n1)sc1c(=O)n(CC(=O)Nc3ccc(C(C)C)cc3)cnc12
97 | O=C(Cn1nc(C(=O)N2CCCC2)ccc1=O)NCC1CCCO1 (configuration not stated)
100 | COc1cccc(OC)c1C(=O)Oc1ccc2c(=O)c(-c3ccccc3Cl)coc2c1
104 | O=C(Nc1ccc2c(c1)OCO2)C1CCN(Cc2cc3ccccc3n2Cc2cccc(F)c2)CC1
100 | CN(C)CCCn1c(=O)c2cnc(-c3cccs3)nc2n(C)c1=O
110 | COCCNC(=O)C1c2ccccc2C(=O)N1Cc1ccc(OC)cc1 (configuration not stated)
100 | O=C(CC1CCN(C(=O)c2cc3cc(Cl)ccc3[nH]2)CC1)N1CCCCC1
106 | CCC(C)NC(=O)Cn1cnc2nc(N3CCCC(C(=O)NC4CC4)C3)sc2c1=O (configuration not stated)
104 | COc1ccccc1NC(=O)Cn1nc2c3sccc3ncn2c1=O
98 | COc1cc(C2C(C(=O)N3CCOCC3)=C(C)NC3=C2C(=O)CCC3)cc(Br)c1O (configuration not stated)
108 | COc1ccc(/C=C/C(=O)N2c3ccccc3C(C)(c3ccc(C)cc3)CC2(C)C)cc1OC (configuration not stated)
99 | CCCCS(=O)(=O)N1CCCN(C2=NS(=O)(=O)C(c3ccc(F)cc3)=C2C)CC1
115 | CCN1CCN(c2ncnc3sc(C(=O)Nc4ccccc4F)c(C)c23)CC1
101 | CCOc1ccc(-c2nc3c([nH]2)c(=O)n(C)c(=O)n3C)cc1OC
107 | CCOC(=O)c1c(CSc2ccccc2)n(C)c2cc(Br)c(O)cc12
105 | Cn1ncc2c(Nc3ccc(F)c(Cl)c3)ncnc21
115 | O=C1c2cc(S(=O)(=O)NC3CCCCC3)cc([N+](=O)[O-])c2-c2c1cc(S(=O)(=O)NC1CCCCC1)cc2[N+](=O)[O-]
102 | CC1(C)CC(=O)C2=C(C1)c1c(ccc3ncccc13)NC2c1ccc(O)c(O)c1 (configuration not stated)
103 | COc1cccc2c1OC(c1ccc(SC)cc1)N1N=C(c3cccnc3)CC21 (configuration not stated)
106 | CC1CC(Nc2ccccc2)c2ccccc2N1C(=O)c1ccccc1[N+](=O)[O-] (configuration not stated)
107 | NC(=O)C1CCN(C(=O)c2ccc(Cn3c(=S)[nH]c4ccc(Br)cc4c3=O)cc2)CC1
100 | COC(=O)c1ccc2c(=O)n(-c3cc(C)cc(C)c3)c(N3CCCC3)nc2c1
95 | Cc1onc(-c2ccccc2Cl)c1C(=O)N1CCN(c2ccc(Nc3ccccc3)nn2)CC1
121 | COc1ccc(S(=O)(=O)n2c(SCC(=O)NCCc3ccccc3)nc3ccccc32)cc1
124 | N#CC1(C#N)[C@H](c2cccnc2)[C@@H](C(=O)c2ccccc2)N2C=Cc3ccccc3[C@@H]21
113 | O=c1n(Cc2cccc(F)c2)nc2c(S(=O)(=O)N3CCc4ccccc4C3)cccn12
106 | Clc1nc(NCCN2CCOCC2)nc(N2CCCCC2)n1
111 | CCOC(=O)c1sc(NC(=O)C(CC)Sc2nc3ccccc3o2)nc1C (configuration not stated)
108 | CCOc1ccc(NC(=O)N2CCCC2c2cc(C)no2)cc1 (configuration not stated)
107 | CCN1/C(=C/c2sc3ccccc3[n+]2CCC(=O)O)Sc2ccccc21
102 | Cc1ccc(-c2n[nH]c(CCNS(=O)(=O)c3ccccc3F)n2)cc1
106 | COc1ccc(-n2c(=O)c3c(n4c(SCC(N)=O)nnc24)-c2ccccc2CC32CCCCC2)cc1
100 | Cc1ccc(S(=O)(=O)Nc2ccc3nncn3n2)c(C)c1
104 | Cn1c(SCC(=O)c2ccc3c(c2)CCCO3)nnc1-c1ccc2c(c1)OCCCO2
104 | CCN1CCN(C(=O)c2n[nH]c3c2CCCCCC3)CC1
105 | COc1ccc(CSc2nccc3c2ccn3CC(=O)NCc2ccc3c(c2)OCO3)cc1
108 | Cc1ccc2c(c1)c(Sc1ccccc1)c(CC(=O)Nc1ccccc1)n2C
112 | N#CC1C(c2ccc3ccccc3n2)=CN(CC(=O)c2ccc([N+](=O)[O-])cc2)c2ccccc21 (configuration not stated)
108 | CC1(C)CN(CC(=O)N2CCCC2)c2ccc(S(=O)(=O)Nc3ccc(S(N)(=O)=O)cc3)cc21
103 | COC(=O)C1=C(C(=O)OC)SC(=C2C(=S)C(C)(C)N(C(=O)C(C)C)c3ccccc32)S1
127 | CC1(C)CC(=O)C2=C(C1)N(CCO)C1=C(C(=O)CC(C)(C)C1)C2c1ccccc1
104 | CCOc1ccc(NS(=O)(=O)c2c(C)sc(C)c2-c2cc(C(F)(F)F)on2)cc1
130 | CCOc1cc(C2Nc3ccc4ccccc4c3C3=C2C(=O)CC(C)(C)C3)ccc1OC (configuration not stated)
103 | CC1=C(C(=O)Nc2ccccc2)C(c2ccco2)C(C#N)=C(SCC(=O)Nc2ccc(C)c(Cl)c2)N1 (configuration not stated)

Of the compounds above, 5 have a thiophene ring, fused or not:
GIV-Gai inh | Molecule
95 | Cc1cc(C)c2c(n1)sc1c(=O)n(CC(=O)Nc3ccc(C(C)C)cc3)cnc12
100 | CN(C)CCCn1c(=O)c2cnc(-c3cccs3)nc2n(C)c1=O
104 | COc1ccccc1NC(=O)Cn1nc2c3sccc3ncn2c1=O
115 | CCN1CCN(c2ncnc3sc(C(=O)Nc4ccccc4F)c(C)c23)CC1
104 | CCOc1ccc(NS(=O)(=O)c2c(C)sc(C)c2-c2cc(C(F)(F)F)on2)cc1

(continued)
GIV-Gai inh | Molecule
108 | CCC(=O)N1CC(C)C(=O)N(Cc2ccccc2)c2ccccc21 (configuration not stated)
107 | Cc1ccc2c(c1)Oc1cc(Cl)c(S(=O)(=O)N3CCc4ccccc4C3)cc1C(=O)N2
108 | O=C(Nc1cccc(-c2nnc(-c3ccccc3)o2)c1)Nc1ccc2c(c1)OCO2
110 | CC(Oc1cccc(Cl)c1)C(=O)N1CCN(c2cc(=O)n(C)c(=O)n2C)CC1 (configuration not stated)
106 | CCOC(=O)C1=CN(Cc2ccc(Cl)cc2)C=C(C(=O)OCC)C1c1ccc(OCC)c(OC)c1
131 | COc1ccc(C(=O)C[n+]2cc(-c3ccccc3)n3c2CCCCC3)cc1OC
108 | O=S1(=O)CC(c2ccccc2)CS(=O)(=O)C1=Cc1ccc(Cl)cc1 (configuration not stated)
112 | Cc1cc(C)cc(-c2cc3nc(C)cc(N4CCC(C(=O)NC5CCCC5)CC4)n3n2)c1
115 | COc1ccc(OC)c(NC(=O)C(=O)NCC2CCCO2)c1 (configuration not stated)
105 | O=C(NC1CCS(=O)(=O)C1)c1ccc(Cl)cc1 (configuration not stated)
117 | C=CCC1(O)C(C)C(c2ccc(Cl)cc2)NC(c2ccc(Cl)cc2)C1C (configuration not stated)
100 | COC(=O)C1=NNC2C(=O)N(c3ccc(C)cc3C)C(=O)C12 (configuration not stated)
97 | CCOc1cccc(C2Nc3c(C)cc(C)cc3[C@H]3OCCC[C@@H]23)c1OC (some centres not stated)
110 | Cc1ccc(N2C(=O)C3C4C=CC(C3C2=O)C2C3C(=O)N(c5ccc(C)cc5)C(=O)C3C42)cc1 (configuration not stated)
103 | CCN(CC)S(=O)(=O)c1ccc2c(c1)cc(C(=O)N1CCN(c3cccc(C)c3)C(C)C1)n2C (configuration not stated)
100 | Cc1cc(C)cc(NC(=O)CSc2ccnc(=O)[nH]2)c1
100 | C=Cc1ccc(Cn2c(=O)n3nc(CCn4nc(C)cc4C)nc3c3cc(OC)c(OC)cc32)cc1
107 | CCc1ccc(Nc2ncnc3c2cnn3-c2ccccc2)cc1
103 | Cc1ccc(Cc2c(C)nc3c(C(=O)NCc4ccc5c(c4)OCO5)cnn3c2C)cc1
119 | CCCS(=O)(=O)c1c(S(=O)(=O)CCC)c2cnccn2c1C(=O)c1ccc(CC)cc1
104 | CN(C)c1ccc(C2C=C(Nc3ccc(F)cc3)C(=O)N2c2ccc(F)cc2)cc1 (configuration not stated)
115 | CCOC(=O)C1CCN(C(=O)c2cc3nc(-c4ccc(OC)c(OC)c4)cc(C(F)(F)F)n3n2)CC1
121 | O=C1c2ccccc2NC2(C(=O)Nc3ccccc32)N1C1CCCCC1 (configuration not stated)
108 | Cc1cccc(NC(=O)c2ccc(=O)n(Cc3ccc(F)cc3)c2)c1
105 | CCc1noc2nc(CCC(=O)NC(C)CC)nc(N3CCCCC3)c12 (configuration not stated)
115 | Cn1c(N2CCCC(C(=O)Nc3nccs3)C2)cc(=O)n(C)c1=O (configuration not stated)
115 | COc1ccc(N2C(=O)/C(=C/c3ccc(OC)c(Br)c3)C=C2c2ccccc2)cc1
103 | O=C1C(c2ccccc2)C(c2ccccc2)NC(c2ccccc2)C1c1ccccc1 (configuration not stated)
115 | CC12c3ccccc3C(C)(c3ccccc31)C1C(=O)N(c3cccc([N+](=O)[O-])c3)C(=O)C12 (configuration not stated)
108 | Cc1cccc(C(=O)N2CCc3cc(CNS(C)(=O)=O)ccc32)c1

Arranged by molar mass (largest number first): three of the compounds above.
GIV-Gai inh | Molecule
121 | O=C1c2ccccc2NC2(C(=O)Nc3ccccc32)N1C1CCCCC1 (configuration not stated)
108 | Cc1cccc(C(=O)N2CCc3cc(CNS(C)(=O)=O)ccc32)c1
108 | Cc1cccc(NC(=O)c2ccc(=O)n(Cc3ccc(F)cc3)c2)c1

The main list resumes, repeating the 5 entries before the break.
GIV-Gai inh | Molecule
115 | Cn1c(N2CCCC(C(=O)Nc3nccs3)C2)cc(=O)n(C)c1=O (configuration not stated)
115 | COc1ccc(N2C(=O)/C(=C/c3ccc(OC)c(Br)c3)C=C2c2ccccc2)cc1
103 | O=C1C(c2ccccc2)C(c2ccccc2)NC(c2ccccc2)C1c1ccccc1 (configuration not stated)
115 | CC12c3ccccc3C(C)(c3ccccc31)C1C(=O)N(c3cccc([N+](=O)[O-])c3)C(=O)C12 (configuration not stated)
108 | Cc1cccc(C(=O)N2CCc3cc(CNS(C)(=O)=O)ccc32)c1
103 | CCOc1ccc(N=C2SC(C(=O)O)CC(=O)N2Cc2ccc3c(c2)OCO3)cc1 (configuration not stated)
112 | Cc1ccc(-n2ncc3c(NCCc4c[nH]c5ccccc45)ncnc32)c(C)c1
106 | CC(=O)c1ccc(NC(=O)CSc2nnc(SCC(=O)Nc3ccc(C(C)=O)cc3)s2)cc1
109 | O=C1NCCc2c1[nH]c1ccc([N+](=O)[O-])cc21
113 | O=C(CN1C(=O)CCSc2ccccc21)NC1CC1
109 | CCNc1cc(C)nc(N2CCN(C(=O)c3cccc(C)c3)CC2)n1
101 | COc1ccc(NC(=O)CSc2nc3ccccc3nc2Cc2cccc([N+](=O)[O-])c2)cc1Cl
102 | CCN(CC)c1ncnc2c1cnn2-c1cc(C)ccc1C
107 | CCC(C)(C)NS(=O)(=O)c1ccc(-c2nc(C(C)C)cs2)s1
106 | CNC(=O)c1c(NC(=O)c2ccc(S(=O)(=O)N(C)Cc3ccccc3)cc2)sc2c1CCC2
122 | COc1ccccc1N1CCN(C(=O)c2sc3ncn(CC(=O)Nc4ccc(C)c(Cl)c4)c(=O)c3c2C)CC1
113 | COc1ccc(C(=O)Nc2ccc(S(=O)(=O)N3CCC(C)CC3)cc2)cc1
108 | Cn1c(=O)c2c(nc(Cl)n2CC(=O)c2ccccc2)n(C)c1=O
103 | Cc1ccc(-n2c3nc(=O)[nH]c(=O)c-3cc3c(Cl)cccc32)cc1C
102 | CCCNC(=O)CCn1c(N2CCCC2)nc2ccsc2c1=O
98 | Cc1ccc(CNC(=O)c2ccc3c(c2)CN(S(=O)(=O)c2ccccc2)CCO3)cc1
112 | O=C(CSc1nc2ccccc2s1)NCCOc1ccc(Cl)cc1
118 | CCN(CC)S(=O)(=O)N1CCC(C(=O)NCCCOC)CC1
104 | Cc1ccc(-c2ccc(-n3nc(C)c(S(=O)(=O)N4CCOCC4)c3C)nn2)cc1
112 | COc1ccccc1NC(=O)c1c(NC(=O)c2ccccc2)sc2c1CCCCC2
106 | Cc1ccc(S(=O)(=O)N(CC(O)CN(CC(C)C)CC(C)C)c2cccc([N+](=O)[O-])c2)cc1 (configuration not stated)
138 | Cc1ccc(C)c(NC(=O)Cn2cc(-c3nc(-c4ccc(Cl)cc4)no3)c(=O)c3ccc(C)nc32)c1
118 | CCc1ccc(C2Nc3ccc4ncccc4c3C3=C2C(=O)CC(C)(C)C3)cc1 (configuration not stated)
100 | Cc1ccc(-c2ccc(C(=O)NC3CCCc4ccccc43)cn2)cc1 (configuration not stated)
100 | CCN(CC)S(=O)(=O)c1cc(-c2nc(C)cs2)n(CC(=O)N2CCCCC2)c1
105 | CCc1ccc(-c2nc(-c3ccncc3)no2)cc1
102 | Cc1ccc(-c2ccc(OCCNC(=O)C3c4ccccc4Oc4ccccc43)nn2)cc1
101 | CC(C)CNS(=O)(=O)c1cc(-c2nc(CC(C)C)cs2)cs1
109 | Clc1ccccc1CSc1nc(NCc2ccco2)c2ccccc2n1
105 | CN(CCc1noc(-c2ccc(C(=O)N3CCCC3)cc2)n1)C(=O)Nc1ccc(Br)cc1
104 | CCc1ccc(NC(=O)Nc2ccc(CCc3nc4ccccc4n3C)cc2)cc1
132 | Cc1ccc(-c2noc(Cc3nc(-c4ccc(C)c(C)c4)cs3)n2)cc1
97 | COc1ccc(NC(=O)c2ccc(-n3cnc4c(sc5nc(C)cc(C)c54)c3=O)cc2)cc1OC
105 | Cc1c(N=Cc2ccc(C(C)C)cc2)c(=O)n(-c2ccccc2)n1C
104 | N#CC1=CN(c2ccc(F)cc2)c2cc(F)ccc2S1(=O)=O

High-throughput results: PubChem, ICCB-Longwood Screening Facility, Harvard Medical School
